T cell modulator – modulators of CD8 T cell-vesicle binding, primary screen, mouse 2C CD8+ T cells, flow cytometry; 2C CD8+ T cell-vesicle binding; active compounds read low; 330,000 compounds, 0.068% hits; calls only at 7 µM;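 active = response, share of CD8 T cells binding vesicles, and their 90th percentile fluorescence all below set limits, cut at about 80% in these data, passing the limit was not always enough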
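material = purified 2C TCR transgenic mouse naive CD8+ T cells | controls = Unloaded micro-vesicles (low), QL9 vesicles with 0.7% DMSO (high) | detection = cytometric PE anti-B7-1 and Alexa647 anti-CD8 signals after 1% paraformaldehyde fixation | incubation = binding step 1.5 h, 37 °C, antibody labelling 20 min, ice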
RSV antiviral HEp-2 – RSV antiviral activity via CPE protection, HEp-2 cells, primary 10 µM value included (AID 2391) | 310,000 compounds, 0.13% hits | HEp-2 cells, RSV-induced CPE inhibition; higher % means a stronger effect | CPE inhibition, % at 10 µM; hits with a dose series show IC50 in µM; in the data active = a potency from the dose series; inconclusive = CPE inhibition mostly from about 23% at the one dose, without a potency; inactive = the rest, 99 in 100 with CPE inhibition below about 21%; note: strong numbers were not always called active
West Nile antiviral – West Nile virus antiviral activity, cell-based, CPE readout (AID 1621). West Nile virus-infected cells, CPE inhibition; higher % means a stronger effect. CPE inhibition, % at 10 µM, or IC50 in µM where a hit was titrated. 290,000 compounds, 0.02% hits; in the data active = a potency from the dose series; inconclusive = CPE inhibition mostly from about 3.7% at the one dose, without a potency; inactive = the rest, 99 in 100 with CPE inhibition below about 2.2%; note: strong numbers were not always called active
Rac1 GTP hydrolysis – MgcRacGAP GTPase-activating activity inhibitors, confirmation, biochemical, ADP Hunter fluorescence | Rac GTPase-activating protein 1 (Homo sapiens) | MgcRacGAP-stimulated Rac1 GTP hydrolysis, ADP Hunter fluorescence; higher % means a stronger effect; GST-tagged Rac1 F28L mutant substrate | inhibition, % at 30 µM; hits with a dose series show IC50 in µM | 340,000 compounds, 0.6% hits;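 active = first-screen hits whose inhibition reached a set limit at any dose in the follow-up dose series; inconclusive = inhibition above the set first-screen limit but never retested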;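 note: fluorescence reports GDP produced by GAP-driven GTP hydrolysis; strong numbers were not always called active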
NS5 inhibitors – Dengue-2 NS5 methyltransferase inhibitors, primary screen, biochemical, confirmation dose response (AID 588689) | Genome polyprotein (Dengue virus type 2 (strain 16681-PDK53)) | Dengue-2 NS5 methyltransferase capping enzyme assay, biochemical; higher % means a stronger effect | inhibition, % at 25 µM; hits with a dose series show IC50 in µM | 340,000 compounds, 0.3% hits; in the data active = a potency from the dose series; inconclusive = inhibition above about 29% without an active follow-up result
T cell modulator vesicle-bound % – further read-out of T cell modulator, marked with its call; double positive events, %; measured here: CD8+ vesicle-bound cell fraction;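 binding gate set so that unloaded-vesicle control wells show 10% double positive cells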
An asterisk follows results filed as active; i = inactive; ? = inconclusive; nt = not tested or not shown; & = joins results of further samples.

cpd | mol | T cell modulator | T cell modulator vesicle-bound % | RSV antiviral HEp-2 | West Nile antiviral | Rac1 GTP hydrolysis | NS5 inhibitors
1 | O=S1(=O)CCC(NC(=S)SCCOc2ccccc2)C1 (stereo not given) | i | 29 | 1.8% | -0.9% | -15% | -23%
2 | CC(Cc1ccc(O)c(O)c1)C(C)Cc1ccc(O)c(O)c1 (stereo not given) | i | 66 | -1.4% | 1.0% | nt | nt
3 | Cc1ccc(C)c2c1[nH]c1ccc([N+](=O)[O-])cc12 | i | 43 | 12% | -0.3% | 2% | 4%
4 | CCN(CC)C(=S)SSC(=S)N(CC)CC | i | 38 | 1.9% | 3.3% | ? | -7%
5 | O=C(Cn1c(C(=O)c2ccccc2)nc2ccccc21)c1ccc(Cl)cc1 | nt | nt | nt | nt | -1% | -10%
6 | Nc1nc(N)c(Cc2ccc(Cl)cc2Cl)c(N)n1 | i | 22 | -0.5% | -1.3% | 5% | -9%
7 | Cc1nc2n(c(=O)c1CCN1CCC(c3noc4cc(F)ccc34)CC1)CCCC2 | i | 34 | -0.6% | -0.6% | 5% | -15%
8 | CC(C)[N+]1(C)[C@@H]2CC[C@H]1CC(OC(=O)C(CO)c1ccccc1)C2 (stereo not given in full) | i | 20&32&26 | 0.0%&1.7%&0.8% | -0.4% | 5%&-2%&4% | -1%&1%&0%
9 | COCCOC(=O)C1=C(C)NC(C)=C(C(=O)OC(C)C)C1c1cccc([N+](=O)[O-])c1 (stereo not given) | i | 23 | 10% | 0.3% | -6% | -4%
10 | Cc1cc(/C=N/n2c(COc3ccccc3)nc3ccccc3c2=O)c(O)c([N+](=O)[O-])c1 | i | 47 | 17% | -1.2% | -2% | -1%
11 | C#Cc1cccc(N2C(=O)C3C4C=CC(C3C2=O)C2C(=O)N(c3cccc(C#C)c3)C(=O)C42)c1 (stereo not given) | nt | nt | nt | nt | 3% | -2%
12 | NCCS | i | 20 | -2.3% | 0.4% | 7% | -7%
13 | OCc1cccnc1 | i | 23 | -1.2% | 0.2% | nt | nt
14 | CC(=O)O[C@H]1C[C@@]2(C)[C@@H](C[C@@H](O)[C@H]3[C@@]4(C)CC[C@@H](O)[C@@H](C)[C@@H]4CC[C@@]32C)/C1=C(\CCC=C(C)C)C(=O)O | i | 26&26 | 17%&1.5% | nt | 1%&3% | -7%&-4%
15 | CCN(CC)S(=O)(=O)c1cccc(C(=O)N/N=C/c2ccc(O)c(O)c2O)c1 | i | 42 | 0.9% | 1.5% | -104% | 51%
16 | CCCc1nn(C)c2c(=O)[nH]c(-c3cc(S(=O)(=O)N4CCN(C)CC4)ccc3OCC)nc12 | i | 24 | -0.9% | -0.6% | 2% | -4%
17 | COc1ccc(CN(CC(O)COc2cccc3[nH]cc(C)c23)C(C)(C)C)cc1 (stereo not given) | i | 31 | 0.5% | 0.6% | nt | -4%
18 | Cc1cc(NC(c2cccnc2)c2ccc3cccnc3c2O)no1 (stereo not given) | i | 22 | -3.2% | ? | 13% | 8%
19 | Nc1ccn([C@H]2CS[C@@H](CO)O2)c(=O)n1 | i | 19 | 0.9% | nt | 6% | -5%
20 | COc1ccccc1OC[C@H](O)CO | i | 24 | 0.6% | -0.2% | -3% | -4%
21 | O=C1NC[C@H](c2ccccc2)OC(=O)[C@@H](Cc2ccc(F)cc2)CC/C=C/C[C@@H]1CC(=O)N(CCO)Cc1ccccc1 | i | 31 | nt | nt | 3% | -10%
22 | O=c1c(Cl)c(O)ccn1C1OC(CO)C(O)C1O (stereo not given) | nt | nt | nt | nt | -3% | -10%
23 | O=C(O)[C@H](O)[C@@H](O)C(=O)O | i | 31 | 4.3% | nt | -1% | -4%

Quoted at random: 3 entries already listed
cpd | mol | T cell modulator | T cell modulator vesicle-bound % | RSV antiviral HEp-2 | West Nile antiviral | Rac1 GTP hydrolysis | NS5 inhibitors
11 | C#Cc1cccc(N2C(=O)C3C4C=CC(C3C2=O)C2C(=O)N(c3cccc(C#C)c3)C(=O)C42)c1 (stereo not given) | nt | nt | nt | nt | 3% | -2%
9 | COCCOC(=O)C1=C(C)NC(C)=C(C(=O)OC(C)C)C1c1cccc([N+](=O)[O-])c1 (stereo not given) | i | 23 | 10% | 0.3% | -6% | -4%
13 | OCc1cccnc1 | i | 23 | -1.2% | 0.2% | nt | nt

In another format: 5 of the compounds above
(2) CC(Cc1ccc(O)c(O)c1)C(C)Cc1ccc(O)c(O)c1 (stereo not given)
(3) Cc1ccc(C)c2c1[nH]c1ccc([N+](=O)[O-])cc12
(4) CCN(CC)C(=S)SSC(=S)N(CC)CC
(5) O=C(Cn1c(C(=O)c2ccccc2)nc2ccccc21)c1ccc(Cl)cc1
(6) Nc1nc(N)c(Cc2ccc(Cl)cc2Cl)c(N)n1
compound no.	2	3	4	5	6
T cell modulator	i	i	i	nt	i
T cell modulator vesicle-bound %	66	43	38	nt	22
RSV antiviral HEp-2	-1.4%	12%	1.9%	nt	-0.5%
West Nile antiviral	1.0%	-0.3%	3.3%	nt	-1.3%
Rac1 GTP hydrolysis	nt	2%	?	-1%	5%
NS5 inhibitors	nt	4%	-7%	-10%	-9%

Some values from the results shown.
Value of #15 under RSV antiviral HEp-2: 0.9%
Value of #22 under NS5 inhibitors: -10%
Value of #10 under NS5 inhibitors: -1%
Value of #12 under T cell modulator vesicle-bound %: 20
Value of #4 under T cell modulator vesicle-bound %: 38

Some of the compounds tested (hit frequency here may not be typical).
